Mtb hypoxia rep: reduces hypoxia-regulated biosensor signal in M. tuberculosis; M. tuberculosis hypoxia-regulated fluorescent reporter, fluorescence; fluorescence inhibition, % (concentration not given with the values); 300,000 compounds, 0.1% hits; AID 1159583;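 active = 35 to 45% if threefold the growth effect, above 45% if 1.5-fold the growth effect; inactive = the rest, general growth blockers included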;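 note: wells of about 50 µL received 100 nL stock; 0% = vehicle wells and 100% = reference inhibitor wells; whole bacteria with a GFP reporter of the hypoxia response; strong numbers were not always called active; many hits fall short of the cut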
BJeLR viability: BJeLR cell viability loss; BJeLR (HRASV12) viability, CellTiter-Glo ATP luminescence, 48 h; reference of the scale not given here; inhibition, % (no concentration beside the values); 300,000 compounds, 0.17% hits; AID 1554;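 active = replicate mean above 50%; inconclusive = above 50% but judged a plate artefact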;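 note: 50 nL library stock added to about 25 µL; numbers are from one replicate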
PrP 5UTR inh: inhibition of PrP 5' UTR reporter expression; cell-based PrP 5' UTR mRNA reporter, plate reader; inhibition, % (no concentration beside the values); 340,000 compounds, 0.35% hits;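 active = every replicate at 50% or more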;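 note: 0 = median of the neutral control wells; tested in H4 reporter cells; numbers are from one replicate; inactives centre near -14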
Bead autofluor: flagged as autofluorescent in microsphere protease counterscreen; compound autofluorescence counterscreen, microsphere flow cytometry; active compounds read high; fluorescence intensity (test concentration not listed); 360,000 compounds, 3.1% hits;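 active = at least 3 SD above the mean of all compounds, about 16000 in these data; inconclusive = too few beads counted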;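 note: 100 nL of 1 mM stock went into each well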
RN4220 kill: S. aureus RN4220 growth inhibition. inhibition, % (no concentration beside the values). OD600, 16 h. 330,000 compounds, 0.33% hits;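 active = z-score of -3 or lower and OD600 up to 0.18 on both plates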;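 note: plate controls were untreated cells for no effect and reference antibiotic for full effect; stock transfer was 100 nL into about 80 µL; one replicate is shown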
ugtP null kill: kills S. aureus RN4220 lacking UgtP | S. aureus RN4220 ugtP deletion, OD600 growth, 16 h; some inactives read as strong as hits | 330,000 compounds, 0.54% hits | AID 1259309 | growth inhibition, % (concentration not given with the values);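 active = z-score under -3 and OD600 up to 0.15 on both plates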;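 note: plate controls were untreated wells for no effect and antibiotic for full effect; wells of about 80 µL received 100 nL stock; the first replicate is given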
Mtb hypoxia rep growth: second read-out of Mtb hypoxia rep, no call of its own (marks repeat the call); growth inhibition, %; measured here: M. tuberculosis growth (absorbance);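 0% = vehicle and 100% = reference antibiotic; read after six days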
* marks the source's active call; other numbers are inactive results; ? = inconclusive; / = no result given. Compounds as they come; any-hit rate near 3.9%.

SMILES	Mtb hypoxia rep	Mtb hypoxia rep growth	BJeLR viability	PrP 5UTR inh	Bead autofluor	RN4220 kill	ugtP null kill
CC(OC(=O)C1=NNC(=O)CC1)C(=O)Nc1ncc(Cl)cc1Cl (stereo not drawn)	0	8	3	-28	3357	0.5	6
O=C(NC(Cc1ccccc1)C(=O)O)/C(=C/c1ccccc1)NC(=O)c1ccco1 (stereo not drawn)	-9	7	-12	-23	5369	-0.1	-1
CNC(=O)c1ccc(N(Cc2ccccc2)S(C)(=O)=O)cc1	6	1	-12	-9	4849	2.4	-1
CC(Sc1nn(-c2ccccc2)c(=S)s1)C(=O)NCC1CCCO1 (stereo not drawn)	-1	5	/	-4	3358	0.0	0
Cc1ccc(C(=O)OCC(=O)Nc2c(Cl)cc(S(N)(=O)=O)cc2Cl)o1	0	-6	-4	-15	3962	7.1	3
COc1ccc(CN2C(=O)NC(=O)/C(=C\c3cccc(OC)c3OC)C2=O)cc1	10	3	3	-35	4222	2.5	3
COc1ccccc1CN(CC(=O)NCc1ccco1)C(=O)CNS(=O)(=O)c1ccccc1	/	/	2	-7	2232	6.2	0
CC1=NN(c2ccccc2)C(=O)C1N=Nc1ccc(N)cc1 (stereo not drawn)	/	/	11	-47	1958	-5.7	7
CC12CCC(C(=O)Nc3ncc([N+](=O)[O-])s3)(OC1=O)C2(C)C (stereo not drawn)	10	15	12	/	11272	12	1
COc1cccc(NS(=O)(=O)c2cc3c(cc2C)NC(=O)CO3)c1	4	0	7	-2	6721	10	13
CCOC(=O)c1c(C)c(C(=O)NCCCOC(C)C)c(C)n1C	4	6	2	-22	19718*	-0.6	5
COc1ccc(Nc2oc(COc3ccc(C)cc3)nc2C#N)cc1	11	13	-4	-7	9822	2.7	4
COc1cccc(CC(=O)NC2CCCN(Cc3ccc(Cl)cc3)C2)c1 (stereo not drawn)	12	0	-4	-22	4034	-0.5	-1
COc1ccc2c(Cl)c(C(=O)NCCCn3ccnc3)sc2c1Cl	6	8	-2	-24	3029	-6.9	-10
O=C(NN=Cc1sc(=O)n(-c2ccccc2)c1Cl)c1ccccc1	-7	-2	/	/	/	-3.1	-4

3 neighbouring records already listed, quoted:
SMILES	Mtb hypoxia rep	Mtb hypoxia rep growth	BJeLR viability	PrP 5UTR inh	Bead autofluor	RN4220 kill	ugtP null kill
CC(OC(=O)C1=NNC(=O)CC1)C(=O)Nc1ncc(Cl)cc1Cl (stereo not drawn)	0	8	3	-28	3357	0.5	6
O=C(NC(Cc1ccccc1)C(=O)O)/C(=C/c1ccccc1)NC(=O)c1ccco1 (stereo not drawn)	-9	7	-12	-23	5369	-0.1	-1
CNC(=O)c1ccc(N(Cc2ccccc2)S(C)(=O)=O)cc1	6	1	-12	-9	4849	2.4	-1

Following part:
SMILES	Mtb hypoxia rep	Mtb hypoxia rep growth	BJeLR viability	PrP 5UTR inh	Bead autofluor	RN4220 kill	ugtP null kill
CCCC(=O)NC(=S)NNC(=O)c1ccc([N+](=O)[O-])cc1	2	13	7	-8	2451	19	4
Cc1nnsc1C(=O)NNc1c(Cl)cccc1Cl	-4	7	-4	2	/	-1.7	-6
COc1ccc(CCC(=O)NCCOc2ccccc2Cl)cc1	3	7	-2	-27	6971	1.7	3
Cc1nc(SCC(=O)Nc2ccccc2)c2oc3ccccc3c2n1	7	8	22	-10	2772	13	10
Cc1ccc(Cl)cc1N1CCN(C(=O)c2ccccc2SCC(=O)N2CCCC2)CC1	6	1	/	-13	8353	4.9	2
CCCn1c(=N)n(CC(=O)c2ccc([N+](=O)[O-])cc2)c2ccccc21	-2	6	-4	-17	4279	6.1	-3
O=C(NCCc1ccccc1)C1CCCN1C(=O)NCc1ccccc1 (stereo not drawn)	-4	-11	18	-5	4245	-1.4	6
COc1ccc(CCN2C(=O)CC(Cc3ccc(C)cc3)C2=O)cc1OC (stereo not drawn)	-2	5	4	-18	4469	4.5	-2
CCC(=O)N1CCN(c2ccc(Cl)cc2NC(=O)c2ccc(N3CCCC3)c([N+](=O)[O-])c2)CC1	-6	10	17	-23	18754*	2.6	-24
O=c1cc(CN2CCN(c3cccc(C(F)(F)F)c3)CC2)nc2sccn12	10	2	-2	/	/	0.8	4
Oc1cncc(-c2cccnc2)c1	8	-4	/	-12	3846	6.6	5
CCCc1nnc(NC(=O)CCS(=O)(=O)c2ccccc2)s1	13	3	9	2	4467	-0.4	10
COc1cc([N+](=O)[O-])ccc1NC(=O)Cc1ccc(F)cc1	14	5	2	8	2082	1.2	1
O=C(NCc1ccccc1)c1ccc(F)c(S(=O)(=O)N2CCOCC2)c1	6	9	2	-10	9345	5.2	7
CCOC(=O)c1c(C)nc2c(c1C)/C(=N/O)CC(C)(C)C2	/	/	-12	-11	8089	/	/
NS(=O)(=O)c1ccc(NS(=O)(=O)c2ccc(NC(=O)C3CC3)cc2)cc1	-1	-1	-8	4	4518	-5.6	-5
COc1ccccc1N(C(=O)c1ccncc1)c1nc(-c2ccc([N+](=O)[O-])cc2)cs1	2	7	0	-18	2654	-8.5	0
Cc1nn(CC(=O)N2CCN(c3ccccn3)CC2)c(=O)c2cc3sccc3n12	10	1	-7	-7	4535	-0.4	-1
O=C(O)c1ccc(NC(=S)NC2CCCCC2)cc1	7	3	2	-7	2307	1.0	4
O=C1OC(c2ccccc2)/C(=C(/O)c2ccc(Cl)cc2)C1=O (stereo not drawn)	8	5	0	-26	8713	11	10
CC1=CCC(C(=O)NN=Cc2cccs2)C(c2ccc(F)cc2)C1 (stereo not drawn)	-6	6	/	/	/	3.9	-9
COc1ccc(Oc2nc(C)cc(C)c2C#N)cc1	6	12	-4	-5	8251	7.2	3
Cc1oc(-c2ccc(Cl)cc2)nc1CS(=O)CC(=O)NCCN1CCCC1 (stereo not drawn)	-5	13	-8	-30	6572	-14	-3
CCC(C)NC(=O)Cc1cn(C)c2ccccc12 (stereo not drawn)	14	2	2	-19	3687	2.3	-1
Cc1ccc(N2C(=O)CC(=O)NC2=O)c(C)c1	-1	-7	-3	-9	4543	4.8	10
COc1cccc(C=CC(=O)C=CC=Cc2ccccc2)c1	8	5	/	-3	4254	8.8	13
CCNc1nc(NCC)nc(N/N=C/c2ccc([N+](=O)[O-])o2)n1	/	/	-14	-12	9592	/	/
COc1ccc(C2=NO[C@@H]3C(=O)N(C4CCCCC4)C(=O)[C@H]23)cc1OC	4	-1	1	-11	22002*	4.6	-1
COc1ccc(CC2(C)OC(c3ccc(Cl)cc3)=NN2C(C)=O)cc1 (stereo not drawn)	13	0	-1	-21	2074	3.3	39
COc1cccc(-c2nc(Cc3ccc(OC)c(OC)c3)no2)c1	8	9	-3	-42	8407	5.8	13
CCOC(=O)c1ccc(COC(=O)c2ccc3c(c2)-c2ccccc2C3=O)cc1	-4	6	1	-26	5898	9.8	-18
Cc1ccc(N(C)S(=O)(=O)c2ccc(-c3ccc(=O)[nH]n3)s2)cc1C	-7	-6	1	-20	5305	4.2	-11
CC(CN1CCNCC1)(NS(=O)(=O)c1ccccc1)c1ccccc1 (stereo not drawn)	/	/	6	-8	3456	4.0	1
Cc1ccc(/C=N/Nc2ncc(Cl)cc2Cl)s1	/	/	-6	-70	10911	/	/
O=C(COc1ccccc1[N+](=O)[O-])OCC(=O)c1ccc(Br)s1	3	6	/	6	3862	6.4	3
Cc1nc2ccc(S(=O)(=O)NCC(=O)Nc3ccc(F)cc3)cc2s1	-5	-7	-18	7	5094	-0.5	-8
Cc1ccc(C(C)C)c(OCC(=O)OCC(=O)c2c(N)n(C)c(=O)n(C)c2=O)c1	7	-5	/	5	6162	6.9	6
CCN(CC)CC(=O)NN=C(c1ccccc1)c1ccccc1	/	/	-2	5	2700	8.2	11
CCn1nc(C)c(CNC(=O)CC2C(=O)NCCN2Cc2ccc(C)o2)c1C (stereo not drawn)	16	13	-6	-17	2543	2.0	4
CCCOc1ccc(Cc2nn3c(=O)c(=Cc4ccco4)sc3nc2=O)cc1	-12	-4	/	/	/	-0.4	-1
COc1ccccc1CN1C(=O)c2cccc3cccc(c23)C1=O	0	-3	11	-15	2478	4.1	4
O=C(CNS(=O)(=O)c1ccc(C(=O)N2CCOCC2)cc1)N1CCOCC1	/	/	0	-17	3857	3.2	0
Cc1ccc(NC(=O)CSCC(=O)Nc2ccccc2N2CCCCC2)cc1	-4	-4	0	4	?	3.1	-15
Cc1nn(CCCC(=O)Nc2cccnc2Cl)c(C)c1[N+](=O)[O-]	-4	2	11	52*	5154	5.0	7
CCNC(=S)N/N=C/c1ccc(OCC(=O)Nc2ccc(C)cc2)cc1	/	/	-1	-25	20930*	/	/
Oc1ccc(Br)cc1/C=N/N1CCCCC1	/	/	16	-103	2599	/	/
CC(C)(C)NC(=O)NC(=O)COC(=O)c1ccc(OC(F)F)cc1	14	4	-1	-32	2121	4.3	16
COc1ccc(-n2nc(C(=O)NCC(=O)N3CCN(c4cccc(Cl)c4)CC3)c3ccccc3c2=O)c(OC)c1	3	-1	2	-6	4372	3.7	1
CC1CCN(C(=O)COC(=O)c2ccc(Br)o2)CC1	8	5	-17	-48	10391	-0.1	-4
CS(=O)(=O)c1ccccc1C(=O)Nc1ccc2sccc2c1	4	1	-3	5	5697	3.0	1
COc1cc(C=NNC(=O)c2cccnc2)ccc1OCC(=O)Nc1ccccc1Cl	5	-4	/	/	/	6.0	7
COc1ccc(CC(=O)c2c(O)cc(O)cc2O)cc1OC	3	10	10	-16	22635*	2.6	1
COc1ccc(CNS(=O)(=O)c2cc(OCC(N)=O)c(C)cc2Cl)cc1	18	12	-4	-16	10156	-0.3	8
O=C1CCCN1CCCNC(=S)Nc1ccc(Nc2ccccc2)cc1	11	13	3	-18	4508	2.9	7
CCCN1C2CCCC1CC(NC(=S)Nc1cccc(C)c1)C2 (stereo not drawn)	2	2	-6	-28	4299	5.6	2
CCn1c(SCC(=O)Nc2ccc(C)cc2)nc(O)cc1=O	5	6	13	-3	3877	1.9	3
COc1ccc(Nc2nc3ccccc3nc2NS(=O)(=O)c2cccs2)c(OC)c1	8	11	11	-9	4658	9.4	-6
O=C(CNC(=O)c1ccc(Cl)cc1Cl)OCCCn1c(=O)[nH]c2ccccc21	-6	6	-3	-34	4188	-2.6	2
CC(C)Sc1nc(N2CCOCC2)c2c(c1C#N)CC(C)(C)N(C)C2	/	/	11	-10	2425	3.3	3
O=C(CCc1nc(-c2ccccc2)c(-c2ccccc2)o1)OCc1ccc(Cl)cc1	4	1	-7	-21	11037	1.2	69

Just Bead autofluor, BJeLR viability and Mtb hypoxia rep growth, for 4 of the compounds above:
canonical_smiles	Bead autofluor	BJeLR viability	Mtb hypoxia rep growth
CCC(=O)N1CCN(c2ccc(Cl)cc2NC(=O)c2ccc(N3CCCC3)c([N+](=O)[O-])c2)CC1	18754*	17	10
O=c1cc(CN2CCN(c3cccc(C(F)(F)F)c3)CC2)nc2sccn12	/	-2	2
Oc1cncc(-c2cccnc2)c1	3846	/	-4
CCCc1nnc(NC(=O)CCS(=O)(=O)c2ccccc2)s1	4467	9	3

Continuation:
SMILES	Mtb hypoxia rep	Mtb hypoxia rep growth	BJeLR viability	PrP 5UTR inh	Bead autofluor	RN4220 kill	ugtP null kill
Cc1cccc(-n2ncc3c2CCCC3NC(=O)CN2CCCC2=O)c1C (stereo not drawn)	9	4	-8	4	3932	2.2	-4
CC(C)(C)c1ccc(/C=N/N2CCN(c3ccccn3)CC2)cc1	/	/	2	-32	5143	/	/
Cc1ccc(S(=O)(=O)N(CC(=O)N=Nc2c(O)[nH]c3ccccc23)c2cccc(C)c2)cc1	-8	-8	-1	-18	2851	18	-15
C=CCOC(=O)C1=C(C)OC(N)=C(C#N)C1c1ccc(F)cc1 (stereo not drawn)	/	/	-2	-5	2119	2.3	3
COc1ccc(CNC(N)=O)cc1	-6	6	2	-18	5243	2.1	1
Cn1c2c(c(=O)n(C)c1=O)[C@@H]1c3c(ccc4ccccc34)OC[C@@H]1CO2	/	/	0	-6	3506	/	/
O=C1c2ccccc2C2(c3cc(C(F)(F)F)cc(C(F)(F)F)c3)NCCN12 (stereo not drawn)	12	8	-2	-25	4061	-0.7	-3
Cn1cccc1C(=O)OCc1ccc(C(C)(C)C)cc1	-4	6	0	-81	3868	-4.2	94*
CC12CCC(=O)C=C1CCC1C2C(O)CC2(C)C(c3csc(N)n3)CCC12 (stereo not drawn)	9	5	/	-19	4440	5.4	-4

Compound activity from PubChem.
